UCH37 DUB inh: inhibitors of human UCH37 deubiquitinase, primary screen, biochemical, Ub-AMC cleavage, fluorescence. purified proteasome/UCH37. inhibition, % (concentration not given with the values). 330,000 tested, 0.33% active. AID 588478, 2011;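 active means mean of two replicates above 20%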;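 further: 0% = compound-free wells with enzyme and 100% = wells lacking proteasome; stock transfer was 100 nL into about 20 µL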
Target sequence (Q9Y5K5 whole entry, looked up): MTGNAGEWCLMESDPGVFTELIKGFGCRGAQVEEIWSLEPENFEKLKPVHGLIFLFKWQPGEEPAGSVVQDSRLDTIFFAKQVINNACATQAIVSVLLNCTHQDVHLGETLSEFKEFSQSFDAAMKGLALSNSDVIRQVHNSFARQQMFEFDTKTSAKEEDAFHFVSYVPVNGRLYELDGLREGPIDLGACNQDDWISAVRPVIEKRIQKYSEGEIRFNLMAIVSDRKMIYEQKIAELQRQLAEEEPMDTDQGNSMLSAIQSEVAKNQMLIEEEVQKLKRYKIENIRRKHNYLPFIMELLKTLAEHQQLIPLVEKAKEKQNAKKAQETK
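Test system – human UCH37 enzyme supplied as purified proteasome complex · Incubation – 30 min preincubation with enzyme, 25 min cleavage at room temperature · Detection – AMC fluorescence from Ub-AMC cleavage, excitation 355 nm, emission 460 nm · Benchmarks – no-proteasome wells (full inhibition) and compound-free wells (no inhibition)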
B2AR ag: beta2AR agonists driving receptor internalization, primary screen, cell-based, FAP fluorogen, flow cytometry; response, % (no concentration beside the values); AID 504454, 2011; 340,000 tested, 0.43% active; Am2.2-beta2AR cells; reference of the scale not given here; Beta-2 adrenergic receptor (Homo sapiens), P07550;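 active means response above a set limit, near 3 SD of response in nonfluorescent compounds, cut at about 42% in these data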;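 further: stock transfer was 100 nL into about 11 µL; a reference agonist was the positive control; negative values mostly stem from fluorescent compounds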
HNF4A DNA FP: change in binding of human HNF4A to DNA, primary screen, biochemical, fluorescence polarization, FITC-DNA. Hepatocyte nuclear factor 4-alpha (Homo sapiens), P41235. 1 h. activity change, % at 10 µM. 360,000 tested, 0.3% active. AID 1224865, 2016; in the data active means activity change above about 30%, passing the limit was not always enough;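 further: controls were the assay level and a saturating level of protein; the project sought stronger binding though the title names inhibitors; some compounds called inactive have numbers as strong as hits; positive values seem to mean higher polarization but the record does not say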
Target sequence (P41235 whole entry, looked up): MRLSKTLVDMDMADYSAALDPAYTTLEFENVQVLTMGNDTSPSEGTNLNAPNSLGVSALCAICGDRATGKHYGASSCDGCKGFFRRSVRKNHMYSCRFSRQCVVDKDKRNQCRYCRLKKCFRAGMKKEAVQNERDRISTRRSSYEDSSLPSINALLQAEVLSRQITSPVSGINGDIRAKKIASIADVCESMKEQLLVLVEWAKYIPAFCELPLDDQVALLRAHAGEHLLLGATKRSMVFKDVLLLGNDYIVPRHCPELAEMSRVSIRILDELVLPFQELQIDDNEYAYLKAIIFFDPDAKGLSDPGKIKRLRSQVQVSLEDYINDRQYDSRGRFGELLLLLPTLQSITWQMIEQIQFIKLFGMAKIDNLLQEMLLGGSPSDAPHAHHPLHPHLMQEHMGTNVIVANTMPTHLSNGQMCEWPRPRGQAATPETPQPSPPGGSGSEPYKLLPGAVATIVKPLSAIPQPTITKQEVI
Vif TR-FRET: inhibitors of Vif binding to APOBEC3G peptide, primary screen, biochemical, TR-FRET, GST-Vif 1-94, biotin-A3G peptide, dose response retest (AID 1117319). TR-FRET GST-Vif / biotin-A3G peptide binding; higher % means a stronger effect; test concentration not given here; strong numbers were not always called active. inhibition, %; hits with a dose series show IC50 in µM. 260,000 tested, 0.57% active. Virion infectivity factor (Human immunodeficiency virus type 1 group M subtype B (isolate …;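 active means above the screen mean plus three standard deviations and confirmed in dose response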;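 further: Vif residues 1-94 fused to GST binding biotinylated APOBEC3G peptide 110-148; 0% = full assay without inhibitor and 100% = GST in place of GST-Vif; retest series ran down from 100 µM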
Ecoli growth: E. coli growth inhibition, primary screen, OD600. Escherichia coli growth, 23 h; stronger effect = lower value. OD600 absorbance (test concentration not listed). 330,000 tested, 0.21% active;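 active means OD600 absorbance below the run mean of sample wells minus 3.6 SD, in any replicate, cut at about 0.56 in these data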;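 further: stock transfer was 300 nL into about 60 µL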
Numbers without * were called inactive; . = not tested or not shown; & = joins results of further samples. The list is partial, so the mix of outcomes need not match the whole.

entry	SMILES	UCH37 DUB inh	B2AR ag	Vif TR-FRET	Ecoli growth	HNF4A DNA FP
1	O=C(NCCN1CCC2(CC1)C(=O)NCN2c1cccc(F)c1)c1ccc2ccccc2c1	.	.	.	.	-5.8
2	C=CCNC(=S)N1Cc2cc(Br)ccc2-n2nncc2C1	.	.	.	.	0.3
3	O=C1c2ccccc2-n2nnc(-c3ccccc3)c2C2c3cc(Br)ccc3CCN12 (stereo not drawn)	.	.	.	.	1.5
4	CC1C(=O)CC2(C(C)C)CC12 (stereo not drawn)	.	.	.	.	3.8
5	O=C(NN=C1CN2CCC1CC2)c1cc2ccccc2cc1O	-0.5	.	.	0.65	.
6	Cc1cc(N(CCCl)CCCl)ccc1C=NNC(=O)c1ccco1	-63	.	.	0.7	.
7	N#Cc1c(N=Cc2ccc(O)cc2O)sc2c1C1CCN2CC1	5.9	.	.	0.67	.
8	CC12CC[C@H]3[C@@H](CCC4(O)C[C@H](O)CCC34C=NNC(=O)c3ccccc3F)C1(O)CCC2C1=CC(=O)OC1 (stereo partly drawn)	1.4	.	.	0.74	.
9	O=C(NN=CC1C(=O)NC(=S)N(c2ccccc2)C1=O)c1cc(Br)c(O)c(Br)c1 (stereo not drawn)	-1.5	.	.	0.66	.
10	COC(=O)C1C2c3ccccc3OC1(C)N=c1sc(=Cc3cnn(C)c3C)c(=O)n12 (stereo not drawn)	2.0	.	.	0.74	.
11	CCOC(=O)C(=NNc1ccccc1)N1CC1	10	.	.	0.67	.
12	Cc1[nH]c2ccccc2c1C=NO	0.8	.	.	0.69	.
13	Oc1ccc(C=NNP(=S)(c2ccccc2)c2ccccc2)cc1	3.8	.	.	0.71	.
14	CNC(=O)ON=Cc1nn(C(=O)C(C)(C)C)cc1Br	2.6	.	.	0.65	.
15	N#Cc1c(N=CC2C(=O)NC(=S)NC2=O)sc2c1CCCC2	12	.	.	0.61	.
16	C[C@H]1CC=C[C@H]2[C@H](O)[C@H](C)[C@@](C)(O)[C@H]3[C@H](Cc4ccccc4)NC(=O)[C@]32[C@H](O)C=C[C@](C)(O)C1	0.4	.	.	0.72	.
17	CCC12CN3CCN(CC(C3)C1=NNC(N)=O)C2	-1.0	.	.	0.68	.
18	CC12CCC3C(CCC4CC(=NO)CCC43C)C1CCC2O (stereo not drawn)	2.4	.	.	0.7	.
19	CC12CC[C@H]3[C@@H](CCC4(O)C[C@H](O)CCC34C=NNC(=O)c3ccc(O)cc3)C1(O)CCC2C1=CC(=O)OC1 (stereo partly drawn)	-0.4	.	.	0.69	.
20	CNC(=O)Nc1ccc(C(=O)NN=CC23CC[C@@H](O)CC2(O)CC[C@@H]2[C@@H]3CCC3(C)C(C4=CC(=O)OC4)CCC23O)cc1 (stereo partly drawn)	3.8	.	.	0.72	.

Sorted by length of the SMILES (highest first): 13 of the compounds above
entry	SMILES	UCH37 DUB inh	B2AR ag	Vif TR-FRET	Ecoli growth	HNF4A DNA FP
16	C[C@H]1CC=C[C@H]2[C@H](O)[C@H](C)[C@@](C)(O)[C@H]3[C@H](Cc4ccccc4)NC(=O)[C@]32[C@H](O)C=C[C@](C)(O)C1	0.4	.	.	0.72	.
20	CNC(=O)Nc1ccc(C(=O)NN=CC23CC[C@@H](O)CC2(O)CC[C@@H]2[C@@H]3CCC3(C)C(C4=CC(=O)OC4)CCC23O)cc1 (stereo partly drawn)	3.8	.	.	0.72	.
19	CC12CC[C@H]3[C@@H](CCC4(O)C[C@H](O)CCC34C=NNC(=O)c3ccc(O)cc3)C1(O)CCC2C1=CC(=O)OC1 (stereo partly drawn)	-0.4	.	.	0.69	.
8	CC12CC[C@H]3[C@@H](CCC4(O)C[C@H](O)CCC34C=NNC(=O)c3ccccc3F)C1(O)CCC2C1=CC(=O)OC1 (stereo partly drawn)	1.4	.	.	0.74	.
9	O=C(NN=CC1C(=O)NC(=S)N(c2ccccc2)C1=O)c1cc(Br)c(O)c(Br)c1 (stereo not drawn)	-1.5	.	.	0.66	.
10	COC(=O)C1C2c3ccccc3OC1(C)N=c1sc(=Cc3cnn(C)c3C)c(=O)n12 (stereo not drawn)	2.0	.	.	0.74	.
15	N#Cc1c(N=CC2C(=O)NC(=S)NC2=O)sc2c1CCCC2	12	.	.	0.61	.
6	Cc1cc(N(CCCl)CCCl)ccc1C=NNC(=O)c1ccco1	-63	.	.	0.7	.
7	N#Cc1c(N=Cc2ccc(O)cc2O)sc2c1C1CCN2CC1	5.9	.	.	0.67	.
14	CNC(=O)ON=Cc1nn(C(=O)C(C)(C)C)cc1Br	2.6	.	.	0.65	.
17	CCC12CN3CCN(CC(C3)C1=NNC(N)=O)C2	-1.0	.	.	0.68	.
11	CCOC(=O)C(=NNc1ccccc1)N1CC1	10	.	.	0.67	.
12	Cc1[nH]c2ccccc2c1C=NO	0.8	.	.	0.69	.

More entries
entry	SMILES	UCH37 DUB inh	B2AR ag	Vif TR-FRET	Ecoli growth	HNF4A DNA FP
21	CN1CCN(N=Cc2c[nH]c3ccccc23)CC1	3.9	.	.	0.7	.
22	C(=NNC1=NCCCCC1)c1c[nH]c2ccccc12	12	.	.	0.64	.
23	Cc1cc(N(CCCl)CCCl)ccc1C=NN=C(N)c1cnccn1	5.0	.	.	0.67	.
24	CC(=O)C1C2c3ccccc3OC1(C)N=c1sc(=Cc3cn(C)nc3C)c(=O)n12 (stereo not drawn)	3.2	.	.	0.71	.
25	CC(=O)OC1CCC2(C=NO)C(=CCC3C4CCC(=O)C4(C)CCC32)C1 (stereo not drawn)	0.7	.	.	0.69	.
26	COC(=O)C1C2c3ccccc3OC1(C)N=c1sc(=Cc3cn(C)nc3C)c(=O)n12 (stereo not drawn)	2.0	.	.	0.69	.
27	Brc1ccc2[nH]cc(C=NN3CCCCC3)c2c1	1.2	.	.	0.68	.
28	O=P(C(=NO)N1CCCCC1)(N1CCOCC1)N1CCOCC1	4.2	.	.	0.71	.
29	CN1CCC2(CC1)NC(=O)c1ccccc1N2	-478	.	.	0.7	.
30	COc1ccccc1/C=C1/C(=NO)C2CCN1CC2	4.2	.	.	0.76	.
31	O=C(CSC1c2ccccc2-c2ccccc21)NN=Cc1ccccc1	2.8	.	.	0.71	.
32	COC(=O)NC(=S)Nc1ccccc1NC(=S)NC(=O)OC	.	-3	.	.	4.8
33	COc1ccc2nc3c(C)n(C)ccc-3c2c1	.	-1	.	.	-1.4
34	O=C1CC(=O)N(Cc2ccccc2)C(=O)N1Cc1ccccc1	.	-6	.	.	52*
35	C[C@@H]1C(=O)O[C@H]2[C@H](O)[C@]34[C@@H]5OC(=O)[C@]3(OC3OC(=O)[C@H](O)C34[C@H](C(C)(C)C)[C@@H]5O)[C@@]12O (stereo partly drawn)	.	9	.	.	1.5
36	NNCc1ccccc1	.	2	.	.	3.1&2.5
37	CCOC(=O)C1C(OC(=O)c2ccccc2)CC2CCC1N2C (stereo not drawn)	.	2	.	.	1.7
38	CC(=O)C1CCC2C3CC(O)C4CC(O)CCC4(C)C3CCC12C (stereo not drawn)	.	10	.	.	-5.8
39	Cc1ccc(NC(=O)c2ncn(CCCNCCN3CCOCC3)n2)cc1C	.	-2	.	.	-4.9
40	CC(=O)OC1CC(OC2C(O)CC(OC3C(O)CC(OC4CCC5(C)C(CCC6C5CC(O)C5(C)C(C7=CC(=O)OC7)CCC65O)C4)OC3C)OC2C)OC(C)C1OC1OC(CO)C(O)C(O)C1O (stereo not drawn)	.	-139	.	.	3.4
41	CC1([N+](=O)[O-])COP(=O)(NCc2cccnc2)OC1 (stereo not drawn)	.	-10	.	.	7.3
42	N[C@H](CO)Cc1ccccc1	.	-2	.	.	0.4
43	CC[C@@H](CO)NC(=O)[C@@H]1C=C2c3cccc4[nH]cc(c34)C[C@H]2N(C)C1	.	-2	.	.	-62
44	CN1C[C@H]2CON(C)[C@H]2C[C@H]1c1cccc(Br)c1	.	-7	.	.	0.1
45	CCC1(CC)C(=O)NC(=O)N(c2ccccc2)C1=O	.	-1	.	.	0.7
46	c1ccc(Nc2ccc3ccccc3c2)cc1	.	2	.	.	0.4
47	COc1ccc(OC(=O)N(C)C[C@@H]2OCc3cnnn3CCCC(=O)N([C@H](C)CO)C[C@@H]2C)cc1	.	.	-4%	.	-1.9
48	CC=CC(C)=CC(C)C(=O)CC(O)CC1CC(=O)NC(=O)C1 (stereo not drawn)	.	.	1%	.	0.4
49	COc1cc(C(=O)N2Cc3ccccc3-n3nncc3C2)cc(OC)c1OC	.	.	-6%	.	2.7
50	CC(C)N=C(NC(C)C)N1CC1	.	.	-7%	.	-1.2
51	Cc1nc2ccccc2c(=O)n1-c1c(Cl)cccc1Cl	.	.	-1%	.	0.2
52	Cc1ncoc1C(=O)NCC1=C(c2cccc3ccccc23)C[C@@H]2CC[C@H]1N2Cc1ccco1	.	.	1%	.	-0.1
53	O=C(Nc1ccc(F)cc1)N1Cc2ccccc2-n2nncc2C1	.	.	8%	.	-6.6
54	COC(=O)C1=C(c2ccc(OCc3ccccc3)cc2)C[C@@H]2CC[C@H]1N2C(=O)NCc1ccc2c(c1)OCO2	.	.	0%	.	-3.5
55	NC(Cc1ccccc1Cl)c1nn[nH]n1 (stereo not drawn)	.	.	-6%	.	5.9
56	Cc1ncoc1C(=O)NCC1=C(c2ccc(S(C)(=O)=O)cc2)C[C@@H]2CC[C@H]1N2CCOc1ccccc1	.	.	-2%	.	12
57	C[C@@H]1CN([C@H](C)CO)C(=O)CCCn2cc(nn2)CO[C@H]1CN(C)C(=O)Oc1ccc2ccccc2c1	.	.	9%	.	3.0
58	COc1ccc(OC(=O)N(C)C[C@@H]2OCc3cnnn3CCCC(=O)N([C@@H](C)CO)C[C@H]2C)cc1	.	.	2%	.	-0.1
59	COC(=O)C1=C(c2ccc(OCc3ccccc3)cc2)C[C@@H]2CC[C@H]1N2C(=O)NCCc1ccc(F)cc1	.	.	0%	.	-1.8
60	Clc1cccc(NC2=NCCS2)c1	.	.	-8%	.	-3.1
61	CCCCOC1OCN(C2CCCCC2)CC1(C)C (stereo not drawn)	.	.	-6%	.	0.4
62	COc1ccc(CCNC2(C#N)CCCCC2)cc1OC	.	.	7%	.	-0.1
63	COC(=O)C1=C(c2ccc(OCc3ccccc3)cc2)C[C@@H]2CC[C@H]1N2C(=O)NCc1ccc(C(C)(C)C)cc1	.	.	1%	.	4.7
64	O=C(NCC1=C(c2cccc3ccccc23)C[C@@H]2CC[C@H]1N2Cc1ccco1)c1cccs1	.	.	-4%	.	-8.4
65	CS(=O)(=O)c1ccc(C2=C(CNC(=O)c3nccs3)[C@H]3CC[C@@H](C2)N3Cc2ccccc2)cc1	.	.	0%	.	3.2
66	C[C@@H]1CN([C@H](C)CO)C(=O)CCCn2nncc2CO[C@@H]1CN(C)C(=O)Oc1ccc2ccccc2c1	.	.	4%	.	8.4
67	COC(=O)C1=C(c2ccc(OCc3ccccc3)cc2)C[C@@H]2CC[C@H]1N2C(=O)NCc1ccccc1C(F)(F)F	.	.	-6%	.	-3.8
68	C[C@H](CO)N1C[C@H](C)[C@H](CN(C)C(=O)Oc2ccccc2)OCc2cnnn2CCCC1=O	.	.	2%	.	-6.2
69	c1ccc(-c2ccc(CN3Cc4ccccc4-n4nncc4C3)cc2)cc1	.	.	0%	.	0.8
70	COc1ccc(NC(=S)N2Cc3ccccc3-n3nncc3C2)c(OC)c1	.	.	-8%	.	3.4

(cont.)
entry	SMILES	UCH37 DUB inh	B2AR ag	Vif TR-FRET	Ecoli growth	HNF4A DNA FP
71	COC(=O)c1cn(Cc2ccc(F)cc2)c2ccccc12	.	.	1%	.	1.7
72	NC1CC2CCCCC2CC1(O)c1ccccc1 (stereo not drawn)	.	.	4%	.	2.4
73	COC(=O)C1=C(c2ccc(OCc3ccccc3)cc2)C[C@@H]2CC[C@H]1N2C(=O)NCc1ccccc1OC	.	.	1%	.	3.2
74	CCNC(=O)N1Cc2ccccc2-n2nncc2C1	.	.	-3%	.	-1.5
75	O=S(=O)(c1ccccc1)N1Cc2ccccc2-n2nncc2C1	.	.	-11%	.	3.9
76	CC(=O)C1CCC2C3CCC4CC(O)CCC4(C)C3CCC12C#N (stereo not drawn)	.	.	-3%	.	-1.4
77	O=C(NCC1=C(c2ccc3ccccc3c2)C[C@@H]2CC[C@H]1N2Cc1ccco1)c1cccs1	.	.	3%	.	6.1
78	O=[N+]([O-])c1ccc(N2CCOCC2)c2c1no[n+]2[O-]	.	.	6%	.	-6.0

Bioassay records: PubChem, several laboratories
